High-throughput results (PubChem)
MT1-MMP act inh: blocks activation of human MT1-MMP. P50281. HT1080 RFP-PRO-GFP cells, GFP/RFP ratio fluorescence, overnight; percent of plate control window, DMSO zero. GFP/RFP ratio change, % at 20 µM. 0.061% of 360,000 active. AID 651647;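 active = GFP/RFP ratio change of at least 30% with cell ATP level not reduced by more than half and red fluorescence within 50% of control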; note: strong numbers were not always called active
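Test system: HT1080 RFP-PRO-GFP cells; Benchmarks: DMSO and RFP-L50D-GFP cell wells; Timing: cells overnight before dosing, compound overnight, 37 °C, 5% CO2; Compound: one 20 µM compound dose with 1% DMSO; Read-out: GFP/RFP fluorescence ratio.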
HIV Env fusion: inhibitors of HIV Env-mediated cell fusion | HeLa-JRFL Env/CEM21 cell fusion, luciferase | AID 651610 | 1.1% of 360,000 active | inhibition, % at 12.3 µM;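 active = mean replicate inhibition score of at least 50 and every replicate individually at or above 50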;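 note: 0% = plate neutral controls and 100% = maraviroc near 300 nM; one replicate is shown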
PABP FP inh: PABP-poly(A) binding inhibition; AID 2014; PABP-poly(A) RNA binding, fluorescence polarization; inhibition, % at 35 µM; P11940; 1% of 290,000 active;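 active = 50% or more with normal probe brightness, or confirmed in later tests; about a fifth of its hits are not listed in these tables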;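 note: calls also rest on retests at 20 µM and on dose response follow-up; controls were probe without protein and protein plus probe with vehicle; some compounds called inactive have numbers as strong as hits; many hits fall short of the cut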
Target sequence (P11940 whole entry, looked up): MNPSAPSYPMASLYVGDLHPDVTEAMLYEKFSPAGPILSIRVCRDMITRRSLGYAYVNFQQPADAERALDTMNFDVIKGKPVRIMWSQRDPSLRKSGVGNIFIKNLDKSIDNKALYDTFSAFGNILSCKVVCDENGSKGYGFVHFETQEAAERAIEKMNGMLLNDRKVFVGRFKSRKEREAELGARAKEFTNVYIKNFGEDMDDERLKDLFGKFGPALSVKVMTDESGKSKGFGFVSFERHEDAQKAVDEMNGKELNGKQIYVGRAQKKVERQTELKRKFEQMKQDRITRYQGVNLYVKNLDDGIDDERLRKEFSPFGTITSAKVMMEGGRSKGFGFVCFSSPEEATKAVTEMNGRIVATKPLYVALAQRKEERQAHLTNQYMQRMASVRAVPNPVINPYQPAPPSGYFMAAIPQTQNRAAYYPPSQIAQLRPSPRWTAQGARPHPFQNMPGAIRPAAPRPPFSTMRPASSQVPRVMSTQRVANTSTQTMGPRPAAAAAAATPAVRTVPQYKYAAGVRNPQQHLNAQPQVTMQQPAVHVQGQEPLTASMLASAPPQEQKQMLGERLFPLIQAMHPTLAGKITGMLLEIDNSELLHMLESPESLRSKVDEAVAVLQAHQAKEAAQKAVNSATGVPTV
CSC inhib: blocks cancer stem cells | 1.1% of 300,000 active | cancer stem cell-like cells viability, luminescence | inhibition, % at 7.5 µM | AID 2717;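 active = mean at 75% or more and at least half the replicates too; tested in HMLE shEcad cells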;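 note: 0% = median of negative and 100% = median of positive control wells; the first replicate is given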
Rce1 inh: blocks yeast Ras-converting enzyme. Q03530. yeast membranes, quenched prenylated peptide cleavage fluorescence. calls only. 0.27% of 290,000 active. AID 2563;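 active = fall in fluorescence gain of 50% or more versus controls, with final raw signal at or below 3038400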;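 note: plate controls were neutral control wells for no effect and wells lacking membranes for full effect; tested at 10 µM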
eIF4H inh: inhibitors of RNA binding by human eIF4H. Q15056. eIF4H fluorescence polarization binding assay. inhibition, % at 35 µM. 0.94% of 290,000 active;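 active = 50% or more with normal probe brightness, or confirmed in later tests; about a fifth of its hits are not listed in these tables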;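 note: calls also rest on retests at 20 µM and on dose response follow-up; 0% = protein and probe with vehicle and 100% = probe without protein; strong numbers were not always called active; many hits fall short of the cut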
UUG fidelity: modulators of start codon recognition fidelity in yeast | S. cerevisiae UUG-firefly luciferase reporter, luminescence/redox ratio | activity score, % at 18.7 µM | 0.13% of 350,000 active | AID 602363;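 active = replicate mean at a twofold rise or more, about +100% in these data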;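 note: firefly luciferase made from a UUG start codon reports start codon fidelity; reporter light over untreated wells divided by growth signal over untreated wells; some hits fall short of that in this replicate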
eIF4H inh retest: recorded beside eIF4H inh, whose call it bears; inhibition, %; compound at 20 µM; confirmation average;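 mean of two retest wells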
PABP FP inh retest: also measured in PABP FP inh; calls as there; inhibition, %; compound at 20 µM; confirmation repeats;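 mean of two retest wells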
MT1-MMP act inh RFP: recorded beside MT1-MMP act inh, whose call it bears; RFP signal change, %; measured here: RFP expression control read;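 0 = vehicle wells; hits needed this value within 50% of zero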
Numbers without * were called inactive; i = inactive; . = not tested or not shown.

Start of the listing, in advance, 7 compounds:
SMILES	MT1-MMP act inh	MT1-MMP act inh RFP	HIV Env fusion	PABP FP inh	CSC inhib	Rce1 inh	eIF4H inh	UUG fidelity	others
CCNS(=O)(=O)c1ccc(CCC(=O)N2CCN(c3cc(Cl)ccc3C)CC2)cc1	-1	-30	40	12	-18	i	-4	-7
Cc1nc(C)n(CCNS(=O)(=O)c2ccc(C)c(C)c2)n1	-3	1	0	2	-4	i	3	-11
Cc1cc(C)c2cc(CN(CCO)Cc3nnnn3Cc3ccccc3)c(=O)[nH]c2c1	-3	-3	.	11	6	i	-7	-2
Cc1nn(C2CCS(=O)(=O)C2)c(C)c1C=O (stereo unspecified)	0	2	14	7	-2	i	4	-16
CCOc1ccccc1-c1nc(CN2CCCC2c2nccs2)c(C)o1 (stereo unspecified)	-3	1	-10	10	-6	i	0	-14
COc1ccc2c(c1)c1nc3n(c(=O)c1n2CC(=O)Nc1cc(C)[nH]n1)CCS3	.	.	-311	11	57	i	-10	.
CC(=O)N1c2ccc(S(=O)(=O)N3CCCC(C(=O)NCc4ccc(Cl)cc4)C3)cc2CC1C (stereo unspecified)	-5	-29	3	-4	-3	i	-10	.

The list itself, from the first entry:
SMILES	MT1-MMP act inh	MT1-MMP act inh RFP	HIV Env fusion	PABP FP inh	CSC inhib	Rce1 inh	eIF4H inh	UUG fidelity	others
CCNS(=O)(=O)c1ccc(CCC(=O)N2CCN(c3cc(Cl)ccc3C)CC2)cc1	-1	-30	40	12	-18	i	-4	-7
Cc1nc(C)n(CCNS(=O)(=O)c2ccc(C)c(C)c2)n1	-3	1	0	2	-4	i	3	-11
Cc1cc(C)c2cc(CN(CCO)Cc3nnnn3Cc3ccccc3)c(=O)[nH]c2c1	-3	-3	.	11	6	i	-7	-2
Cc1nn(C2CCS(=O)(=O)C2)c(C)c1C=O (stereo unspecified)	0	2	14	7	-2	i	4	-16
CCOc1ccccc1-c1nc(CN2CCCC2c2nccs2)c(C)o1 (stereo unspecified)	-3	1	-10	10	-6	i	0	-14
COc1ccc2c(c1)c1nc3n(c(=O)c1n2CC(=O)Nc1cc(C)[nH]n1)CCS3	.	.	-311	11	57	i	-10	.
CC(=O)N1c2ccc(S(=O)(=O)N3CCCC(C(=O)NCc4ccc(Cl)cc4)C3)cc2CC1C (stereo unspecified)	-5	-29	3	-4	-3	i	-10	.
O=C(NCCO)c1nc(C(=O)c2ccc(Cl)cc2)c2ccccc2n1	3	5	8	.	10	.	.	-8
Cc1ccc(OCCNC(=O)Cc2ccc(F)cc2)cc1	0	-1	11	-15	-7	i	-6	-11
COc1ccc(NS(=O)(=O)c2ccc(C(=O)N(C)Cc3cccs3)cc2)cc1	-3	-10	9	.	.	.	.	-2
C=CCn1c(=O)c2c(nc3n2CCS3)n(C)c1=O	-5	-2	.	2	.	i	0	-11
CC1CN(c2ccc([N+](=O)[O-])cc2Cl)CCN1S(C)(=O)=O (stereo unspecified)	-1	-4	-3	-4	4	i	-9	.
O=C(CCc1ccc(S(=O)(=O)N2CCOCC2)cc1)OCC(=O)c1ccccc1	1	3	-1	.	-18	.	.	-12
CC1=Nn2c(nnc2-c2ccccn2)SC1	6	2	-185	-10	-10	i	-8	.
O=C(Nc1ccc2c(c1)OCO2)c1cc(C2CCCN(C(=O)C3CCCCC3)C2)on1 (stereo unspecified)	0	-10	-6	.	.	.	.	4

6 structures out of the list, arranged by count of non-hydrogen atoms, falling:
SMILES	MT1-MMP act inh	MT1-MMP act inh RFP	HIV Env fusion	PABP FP inh	CSC inhib	Rce1 inh	eIF4H inh	UUG fidelity	others
Cc1cc(C)c2cc(CN(CCO)Cc3nnnn3Cc3ccccc3)c(=O)[nH]c2c1	-3	-3	.	11	6	i	-7	-2
COc1ccc2c(c1)c1nc3n(c(=O)c1n2CC(=O)Nc1cc(C)[nH]n1)CCS3	.	.	-311	11	57	i	-10	.
COc1ccc(NS(=O)(=O)c2ccc(C(=O)N(C)Cc3cccs3)cc2)cc1	-3	-10	9	.	.	.	.	-2
O=C(NCCO)c1nc(C(=O)c2ccc(Cl)cc2)c2ccccc2n1	3	5	8	.	10	.	.	-8
Cc1nc(C)n(CCNS(=O)(=O)c2ccc(C)c(C)c2)n1	-3	1	0	2	-4	i	3	-11
C=CCn1c(=O)c2c(nc3n2CCS3)n(C)c1=O	-5	-2	.	2	.	i	0	-11

More records:
SMILES	MT1-MMP act inh	MT1-MMP act inh RFP	HIV Env fusion	PABP FP inh	CSC inhib	Rce1 inh	eIF4H inh	UUG fidelity	others
CC(=O)NC(CC(=O)NNC(=O)c1cccs1)c1ccccc1 (stereo unspecified)	1	3	-2	.	-10	i	.	-18
CSc1nnc(C)c(=O)n1COC(=O)c1ccccc1	-2	-1	16	-4	-17	i	1	.
CC1(C(=O)NS(=O)(=O)c2cccs2)CCN1C(=O)Cc1ccccc1 (stereo unspecified)	-1	2	25	.	.	.	.	-8
Cn1cc(CNC(=O)C23CC4CC(CC(C4)C2)C3)cn1	0	0	-68	-3	-8	i	4	-8
Cc1ccc(-n2ncc(Br)c(Br)c2=O)cc1	-17	-26	.	-1	.	i	1	-34
O=C(CC1C(=O)NCCN1C(=O)Nc1ccccc1)Nc1ccc(F)cc1 (stereo unspecified)	4	-4	-1	4	-5	.	-3	.
COC(=O)c1ccc(S(=O)(=O)N2CCCN(Cc3ccc(F)cc3)CC2)n1C	9	-5	-6	1	3	i	4	.
O=C(NNC(=O)c1ccc(-c2ccccc2)cc1)Nc1ccc(F)cc1F	-1	3	3	4	.	i	-4	-11
O=P(OC1CCCCC1)(OC1CCCCC1)C(O)c1c(Cl)cccc1Cl (stereo unspecified)	-2	0	59*	-2	21	i	5	0
ON=C1CCN(c2ncc(C(F)(F)F)cc2Cl)CC1	1	-4	-109	-12	-15	i	-12	-19
COc1ccc(C2C(=O)N(C3CCCCCC3)CC(=O)N2Cc2ccccc2)cc1OC (stereo unspecified)	-3	1	41	8	-7	i	-6	.
COc1ccc2ccccc2c1C1CC(=O)N2CN(Cc3ccco3)CSC2=C1C#N (stereo unspecified)	3	2	-125	1	-4	i	-4	-4
COc1cc2c(c(OC)c1OC)-c1c(cc3c(c1OC)OCO3)C[C@H](C)[C@@](C)(O)C2	0	5	-7	-3	-9	i	-13	-5
Cc1cc(=O)n(C)c(=O)n1CCCCCCOc1ccc([N+](=O)[O-])cc1	.	.	.	1	15	i	3	.
CC(=O)Nc1ccc(S(=O)(=O)NCc2ccc3c(c2)cc(C)n3C)cc1	47	58	-8	60*	11	i	55*	5
CC1(C)CC(=O)CC2(C1)NCC(c1ccccc1)c1c2[nH]c2ccccc12 (stereo unspecified)	-4	-1	-22	2	-11	i	-1	-13
CSC(=NCc1ccc(F)cc1)NS(=O)(=O)c1cccs1	3	0	28	4	-10	i	-2	.
O=C(CSc1nncs1)Nc1ccc(Cl)cn1	-2	-3	-18	-5	-8	i	0	.
O=C(NCc1cccnc1)c1ccc(S(=O)(=O)Nc2ccccc2)cc1	-1	-6	-28	.	7	i	.	-6
COc1ccccc1C1CN(c2ccc(F)cc2F)N=C1c1cccs1 (stereo unspecified)	-8	-1	.	-14	12	i	-12	-9
CCC(C)c1ccc(OCC(=O)O)cc1 (stereo unspecified)	2	7	-52	2	-19	i	6	-8
Cc1ccc(OCC(=O)N/N=C\c2ccc(-c3cccc(C(=O)O)c3)o2)c(C)c1	-2	4	5	2	-12	i	89*	-17	eIF4H inh retest=68*;PABP FP inh retest=6
Cc1ccc(-n2c(SCC(=O)NCCN3C(=O)CSC3=O)nnc2-c2ccccc2)cc1	-4	4	8	14	.	i	-12	.
CCOc1cc(C2C(C(=O)OC(C)C)=C(C)N=C3SCCC(=O)N32)ccc1OC(C)=O (stereo unspecified)	-1	4	7	-10	3	i	-6	7
NC(=O)CC(NC(=O)Cc1ccc(Br)cc1)c1ccc(N2CCC(N3CCCCC3)CC2)c([N+](=O)[O-])c1 (stereo unspecified)	-2	0	-15	-9	-8	i	-6	5
Cc1cc(=O)[nH]c(N/N=C/c2ccc(Cl)cc2Cl)n1	4	1	14	10	-7	i	-27	1
Cc1cccc(Nc2nc(N)c([N+](=O)[O-])c(NCc3ccccc3)n2)c1	-2	-11	19	-3	61	i	-2	-16
O=C(NNC(=O)c1ccccc1Br)c1ccc2nc[nH]c2c1	1	3	-2	69*	-12	i	84*	-27
CCOC(=O)N1CCC(NS(=O)(=O)c2cc(Br)cc3c2N(C(=O)CC)CC3)CC1	4	-2	39	-6	-6	i	1	0
CC1CCCN(Cc2nc3c(c(=O)n(C)c(=O)n3C)n2CC(=O)c2ccccc2)C1 (stereo unspecified)	-3	-4	-27	13	64	i	2	4
CS(=O)(=O)N(CC(=O)NC1CCCC1)c1ccc2c(c1)OCCO2	-3	6	-15	-4	-7	i	-3	-9
CCCC(=O)Nc1cc(-c2nnc(OC)c3ccccc23)ccc1N1CCCCC1	.	.	.	-5	-7	i	-3	.
CCCc1cc(C(=O)Nc2cc(C)on2)no1	1	6	17	2	-4	i	0	-15
CCNC(=S)Nc1ccc(N(c2ccccc2)C(C)C)cc1	-4	-6	.	-7	-2	i	-17	.
C=CCn1c(SCc2ccc(C#N)cc2)nnc1-c1cccc(Cl)c1	-4	-2	.	-2	-9	i	1	-12
COC(=O)CNC(=O)c1ccc(F)cc1	0	-1	10	-3	-17	i	-11	-11
COC(=O)NC(=C(Cl)Cl)S(=O)(=O)c1ccccc1	10	12	.	-4	21	.	-5	-12
c1ccc(COc2ccc(OCCCCN3CCCCC3)cc2)cc1	-7	-4	-19	1	19	i	-5	-10
Cn1c(=O)[nH]c(=O)c2c1nc(SCCO)n2CCCc1ccccc1	3	5	13	-7	-8	i	-8	-11
O=C(CSc1nc2ncc(Cl)cc2[nH]1)N1CCC(Cc2ccccc2)CC1	-2	-2	-7	.	-20	.	.	-8
Cc1ccc(NC(=O)Cn2nnc(-c3ccccc3-n3cnnn3)n2)c(C)c1	2	0	-13	-4	-23	i	-6	0
CC1CCN(C(=O)Cn2c3ccccc3c3nc4n(c(=O)c32)CCS4)CC1	2	-4	10	.	-5	i	.	-18
COC(=O)C1CSC2c3ccccc3C(=O)N12 (stereo unspecified)	-2	2	11	.	-8	i	.	-8
CC1(C)Oc2ccc3ccc(=O)oc3c2[C@@H](O)[C@@H]1O	-8	-1	-31	.	-3	.	.	-21
Cc1ccc(N(Cc2ccccc2)C(=O)c2cc(S(=O)(=O)N3CCOCC3)ccc2Cl)cc1	-7	-16	26	.	12	i	.	-16
CCOC(=O)c1[nH]c(C)c(/C(O)=C2\C(=O)C(=O)N(CCCN3CCOCC3)C2c2cccs2)c1C (stereo unspecified)	2	-10	-36	5	51	i	-1	.
